INS promoter inh: TRM-6 insulin promoter activity inhibition; TRM-6 cells (human fetal islet line), insulin promoter-eGFP reporter, imaging; reporter expression induced with tamoxifen; inhibition, % at 2 µM; 130,000 tested, 0.9% active;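 active means inhibition above the mean plus 3 SD, with well images judged a real hit on visual review, cut at about 60% in these data, passing the limit was not always enough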
GALR2 ag: agonists of human galanin receptor 2 (GALR2); O43603; GALR2-expressing cells, agonist activation read-out; activation, %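 (tested at 5 µM)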; 140,000 tested, 0.48% active; AID 803;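 active means above mean plus 3 SD of all compounds, about 5% in these data, not always enough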;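 further: 0% = vehicle buffer wells and 100% = reference agonist at full effect; tested in CHO reporter cells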
Target sequence (O43603 whole entry, looked up): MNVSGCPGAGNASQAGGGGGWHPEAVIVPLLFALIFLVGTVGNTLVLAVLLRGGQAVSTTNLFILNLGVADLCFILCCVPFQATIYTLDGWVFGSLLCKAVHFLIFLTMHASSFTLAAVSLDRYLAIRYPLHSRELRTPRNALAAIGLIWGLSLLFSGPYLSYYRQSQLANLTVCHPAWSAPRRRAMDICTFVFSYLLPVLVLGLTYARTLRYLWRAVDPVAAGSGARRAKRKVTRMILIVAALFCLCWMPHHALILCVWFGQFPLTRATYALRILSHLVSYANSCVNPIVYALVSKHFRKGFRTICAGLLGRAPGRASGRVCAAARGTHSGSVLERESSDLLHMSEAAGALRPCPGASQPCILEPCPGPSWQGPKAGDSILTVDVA
PKD1 kinase inh: blocks activity of human protein kinase D1; Q15139; 200,000 tested, 0.056% active; inhibition, %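 (about 10 µM by stock and volumes)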; PKD1 kinase fluorescence polarization assay; AID 797;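 active means inhibition of 50% or more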;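 further: controls were vehicle for no effect and a reference inhibitor for full effect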
RGS16-Gao: modulates binding between human RGS16 and Galphao; bead-based flow cytometry RGS16-Galphao binding, fluorescence; actives lie on both sides; O15492+P09471; AID 1441; binding response (% of control), % at 10 µM; 220,000 tested, 0.38% active;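 active means below 25% or above 175%, edge rows of some plates excepted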;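 further: Galphao activated by GDP with aluminum fluoride before binding; 100% = wells without compound and 0% = beads without RGS; some results beyond the cut were filed as inactive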
Target sequence (O15492 whole entry, looked up): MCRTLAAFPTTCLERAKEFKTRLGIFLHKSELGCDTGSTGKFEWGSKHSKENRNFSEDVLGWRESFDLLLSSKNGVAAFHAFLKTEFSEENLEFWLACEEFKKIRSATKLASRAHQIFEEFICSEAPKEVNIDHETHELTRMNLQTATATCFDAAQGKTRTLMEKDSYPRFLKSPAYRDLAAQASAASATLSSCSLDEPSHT
Target sequence (P09471 whole entry, looked up): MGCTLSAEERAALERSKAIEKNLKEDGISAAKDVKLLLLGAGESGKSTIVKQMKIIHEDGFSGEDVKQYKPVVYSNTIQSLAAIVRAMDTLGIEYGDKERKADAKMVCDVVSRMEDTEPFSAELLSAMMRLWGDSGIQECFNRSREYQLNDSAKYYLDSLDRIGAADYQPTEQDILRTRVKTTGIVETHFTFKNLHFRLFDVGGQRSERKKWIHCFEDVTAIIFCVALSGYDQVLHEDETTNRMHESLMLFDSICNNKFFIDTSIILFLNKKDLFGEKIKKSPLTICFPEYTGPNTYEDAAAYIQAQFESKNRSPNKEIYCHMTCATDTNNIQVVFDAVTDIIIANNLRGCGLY
HSV augment: HSV replication enhancement | AID 1956 | maximum fold increase | 220,000 tested, 0.005% active | HSV replication augmentation in cells, fold increase;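 active means peak rise of 1.5-fold or more in the series; tested in PC3 cells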;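 further: first round at 10 µM; read as green reporter fluorescence; hits show the peak of a series up to 25 µM; 1 = signal of infected wells without compound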
INS promoter inh cell count: second read-out of INS promoter inh, no call of its own (marks repeat the call); normalized cell count, %; measured here: cell count, toxicity; reference of the scale not given here;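 cells exposed to compound for 48 h; stained nuclei by imaging scaled within each plate; lower means fewer cells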
HSV augment primary fold: further read-out of HSV augment, marked with its call; fold increase; compound at 10 µM; measured here: primary screen fold increase 10 uM; tested in PC3 cells;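 GFP signal in the first replicate; 1 = infected wells without compound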
* hit, by the source's call; i = inactive; · = no result given.

compound	RGS16-Gao	INS promoter inh	PKD1 kinase inh	HSV augment primary fold	INS promoter inh cell count	HSV augment	GALR2 ag
Cc1cccc(C)c1OCc1nnc(NC(=O)CSc2ccc(Cl)cc2)s1	102	39	-10	0.86	146	i	0.4
c1coc(-c2ccnc(-c3ccncc3)n2)c1	102	-44	-3	1.3	104	i	·
COc1ccc(CCNC(=O)c2ccc(N(C)S(=O)(=O)c3ccc(C)cc3)cc2)cc1OC	101	0	1	0.95	71	i	·
CC(=O)NNC(=O)c1ccncc1	104	-205	-5	0.92	100	i	-0.6
Cc1onc(-c2c(Cl)cccc2Cl)c1C(=O)NNC(=O)c1c(-c2c(Cl)cccc2Cl)noc1C	96	·	·	1.2	·	i	·
CSc1nsc(SC)c1C(=O)N1CCN(S(=O)(=O)c2ccc(C)cc2)C1C (stereo not drawn)	100	-125	-6	0.89	105	i	-2.0
CCOCCc1nnc(NC(=O)c2cccs2)s1	103	-4	5	0.89	191	i	-2.0
CCCC(C(=O)NCc1ccc(OC)cc1)N(Cc1ccco1)C(=O)c1snc(C(N)=O)c1N (stereo not drawn)	103	-12	-1	0.94	102	i	-1.9
Cc1cc(C(=O)OCC(=O)Nc2ccc(F)c(F)c2F)c(C)o1	100	·	-12	0.96	·	i	·
O=C(COc1ccc(Cl)cc1)NCc1nnc(SCC(=O)NC2CCCCC2)o1	99	21	-1	1	45	i	-2.0
CCCCSc1nc2c(c(=O)[nH]1)CCC2	117	·	-8	1.1	·	i	-1.0
CS(=O)(=O)c1ccc(Cl)c(NC(=O)COC(=O)c2c(Cl)cccc2Cl)c1	100	·	-4	0.93	·	i	·
Cn1nc(C(=O)Nc2cccnc2)c2ccccc2c1=O	99	31	-12	0.76	72	i	-4.4
CCn1c(COc2c(C)cccc2C)nnc1SCC(=O)N1CCN(c2ccccc2)CC1	249	18	-2	0.97	60	i	-0.9
Cc1cc(C)nc(N2CCCC(C(=O)NCc3cccc(C(F)(F)F)c3)C2)n1 (stereo not drawn)	45	·	-3	1.1	·	i	-2.9
CC(=O)NN1C(=O)c2ccccc2NC1c1ccoc1 (stereo not drawn)	100	·	-1	0.93	·	i	·
CC1c2nc3ccccc3n2C(CC(=O)NCc2ccccn2)C(=O)N1Cc1ccccc1 (stereo not drawn)	106	9	-4	0.93	134	i	-2.1
O=C(O)c1ccc(Cl)c(S(=O)(=O)NC(Cc2ccccc2)C(=O)O)c1 (stereo not drawn)	101	·	6	0.64	·	i	·
COc1ccc2[nH]c3c(c2c1)CCn1c-3nc2ccccc2c1=O	101	26	-4	·	87	·	8.7*
CCOC(=O)CCCNC(=O)COC(=O)/C=C/c1ccc2c(c1)OCO2	94	·	-8	0.95	·	i	·
O=C(Oc1ccc(N2C(=O)CCC2=O)cc1)c1ccccc1	114	-149	-7	0.99	93	i	-3.5
C/C(=N\NC(=O)c1ccc(Br)cc1)c1ccccc1	105	-16	0	0.97	142	i	0.3
Cc1cccc(C2c3[nH]c4ccccc4c3CCN2C(=O)c2cc(CC(C)C)nc(C)n2)n1 (stereo not drawn)	98	·	-8	1	·	i	·
Cc1nn(Cc2ccc(Cl)cc2)c(=O)n1N(C)c1ncc(C(F)(F)F)cc1Cl	101	-34	-7	0.96	150	i	-1.4
O=C(NC(=S)NC1CCSC1=O)c1ccccc1 (stereo not drawn)	103	·	-1	0.94	·	i	-2.2
Cc1cc(NC(=O)CCCN2C(=O)c3cccnc3C2=O)no1	88	20	-10	·	93	·	-0.3
N/C(=N\OC(=O)COc1ccccc1Cl)c1ccc(Cl)cc1	102	·	-1	0.91	·	i	-1.8
CC(Sc1nnc(COc2ccc(Cl)cc2)n1Cc1ccccc1)C(=O)O (stereo not drawn)	98	·	-5	1	·	i	·
Cc1ccc2cccc(SCC(=O)NCC#N)c2n1	97	24	-16	0.89	95	i	-1.2
CCc1ccc(NC(=O)C(=O)N/N=C(\C)CC(=O)Nc2ccccn2)cc1	97	·	5	1.1	·	i	-0.1

compound	RGS16-Gao	INS promoter inh	PKD1 kinase inh	HSV augment primary fold	INS promoter inh cell count	HSV augment	GALR2 ag
Cc1ccc2c(CC(=O)Nc3c(C)n(C)n(-c4ccccc4)c3=O)coc2c1	102	-50	-6	0.91	96	i	-1.0
CCOc1ccc(C(=O)NC(=S)Nc2ccccc2N2CCC(C)CC2)cc1[N+](=O)[O-]	106	7	-8	1	125	i	-1.2
O=C(CSCc1ccc(C(=O)O)cc1)Nc1ccccc1	105	-59	0	1.1	98	i	·
CCc1cccc(NC(=O)Cn2cc(C=O)c3ccccc32)c1	99	53	-1	0.94	141	i	·
CCOC(=O)c1nnn(-c2nonc2N)c1CNc1ccc(C)c(Br)c1	105	-15	-11	·	104	·	-0.9
O=C(CSc1ccccn1)N/N=C/C=C/c1ccccc1	99	23	4	0.92	140	i	-1.5
CC(=O)Nc1cccc(NC=C(C#N)C#N)c1	95	-11	4	0.94	99	i	·
COC(=O)c1cc(NS(=O)(=O)c2ccc(N3CCOCC3)c([N+](=O)[O-])c2)cc(C(=O)OC)c1	86	15	-4	·	77	·	-0.9
COc1ccc(N(C(C)=O)c2nc(C)cc(C)c2C#N)c(OC)c1	122	·	-3	0.99	·	i	·
c1ccc(-c2nccnc2-c2ccccc2)cc1	108	·	·	1	·	i	·
CC(=O)c1ccc(OCC(O)CN2C(C)(C)CC(O)CC2(C)C)cc1 (stereo not drawn)	110	·	1	1	·	i	-2.6
CCOC(=S)SCC(=O)N1CCc2cc(OC)ccc2C1C1C(=O)CCCC1=O (stereo not drawn)	101	·	0	0.98	·	i	-1.3
COc1ccc(C(=O)C2C(c3ccc(-c4ccccc4[N+](=O)[O-])o3)NC(=O)NC2(O)C(F)(F)F)cc1 (stereo not drawn)	97	·	1	1.2	·	i	-1.4
N#CC1=C(S)N(c2ccccc2)C(c2ccc(-c3ccc(Cl)c(Cl)c3)o2)NC1=O (stereo not drawn)	100	·	·	1.1	·	i	·
CC(C)(C)CN1CCNC(=O)C1CC(=O)NCCc1cnn(-c2ccccc2)c1 (stereo not drawn)	63	·	3	0.97	·	i	·
Cc1noc(C)c1COC(=O)CNC(=O)c1cccc(F)c1	102	-8	2	0.95	137	i	·
CCCCC(=O)Nc1nc2c(OC)ccc(OC)c2s1	103	·	1	0.95	·	i	-3.0
CNC(=S)NNc1nncc2ccccc12	98	·	-3	0.91	·	i	·
CS(=O)(=O)NN1C(=O)c2ccccc2NC12CCCC2	102	·	-6	0.91	·	i	·
O=C(CC1C(=O)NCCN1C(=O)Nc1ccccc1)Nc1cccc(Cl)c1 (stereo not drawn)	103	-63	-7	0.95	85	i	·
Cc1ccc(C(C(=O)NCc2ccccc2)N(C(=O)c2csnn2)c2cccc3ccccc23)o1 (stereo not drawn)	103	-17	9	1	90	i	-1.2
O=C(NC(=S)Nn1cnc2c(cnn2-c2ccccc2)c1=O)c1ccc(Cl)cc1	101	·	0	0.98	·	i	-2.0
CC(C)c1ccccc1-n1c(-c2cccnc2)n[nH]c1=S	91	29	-1	1.2	59	i	·
COCCSc1nnc(NC(=O)c2ccc([N+](=O)[O-])cc2)s1	98	0	0	1	149	i	·
O=C(NCc1ccncc1)C1CCN(S(=O)(=O)Cc2ccccc2)CC1	107	·	3	0.98	·	i	-3.0
C=C(Cl)COc1cc(C)cc2oc(=O)cc(CC)c12	99	33	-2	1.1	53	i	-0.3
Cc1ccc(CSc2nc3ccccc3c(=O)[nH]2)cc1	98	·	-1	0.98	·	i	·
C=CCn1c(SCC(=O)Nc2cc(C)on2)nc2sc(CC)cc2c1=O	42	9	-7	1.1	115	i	0.2
Cc1cccc(NC(=O)C(=O)NCCCc2ccccc2)c1	105	-6	-7	1	88	i	-1.7
COc1ccc2nc(Nc3nc4cc5c(cc4s3)OCCO5)sc2c1	111	29	6	0.99	35	i	2.9

compound	RGS16-Gao	INS promoter inh	PKD1 kinase inh	HSV augment primary fold	INS promoter inh cell count	HSV augment	GALR2 ag
CSC1=NCCN1C(=O)c1ccc(S(=O)(=O)N2CCCCC2)cc1	97	·	3	0.84	·	i	-1.7
CC(=O)Nc1ccc2c(COC(=O)[C@H](C)N3C(=O)C4CCCCC4C3=O)cc(=O)oc2c1 (stereo partly drawn)	104	·	·	0.89	·	i	·
O=c1[nH]c2c(n(C3CCCCC3)c1=O)CCC2	101	·	11	0.85	·	i	-0.1
CC(C)(C)SCCNS(=O)(=O)c1ccc2ccccc2c1	104	10	-5	1	104	i	-3.3
CC(C)n1c(-c2cccs2)nc2ccccc21	101	56	4	1	160	i	-0.8
COC(=O)c1[nH]c2cc(OC)ccc2c1NC(=O)CCN1CCCCC1	130	21	-6	0.89	77	i	-2.2
COC(=O)c1sc2ncn(N)c(=O)c2c1C	107	·	·	1	·	i	·
COc1ccc(OC)c(-c2csc(N(Cc3ccco3)C(=O)c3ccco3)n2)c1	100	50	-5	1.1	52	i	·
CCCc1n[nH]c2c1C(=O)C(C(=O)OC)C(C)(C)C2 (stereo not drawn)	109	30	3	0.84	117	i	-1.0
O=C(NCCc1c[nH]c2ccccc12)C(=O)NCC1OCCN1S(=O)(=O)c1ccc(F)cc1 (stereo not drawn)	·	-48	-5	0.91	102	i	-0.5
COc1ccc(C(=O)Oc2coc(CSc3nnc(NC(=O)c4cccs4)s3)cc2=O)cc1	102	4	0	1.1	58	i	-0.6
N#Cc1nccnc1S(=O)(=O)c1cccs1	101	·	·	0.75	·	i	·
COc1cccc(-c2cc(C(=O)Nc3cc(C)on3)no2)c1	98	·	8	0.84	·	i	6.2*
COC(=O)c1ccc(-n2c(C)cc(C(=O)COC(=O)CNS(=O)(=O)c3ccc(C)cc3)c2C)cc1	108	33	-2	0.94	146	i	-1.5
O=C(CSc1nnc(-c2cccnc2)n1-c1ccccc1)NCc1ccc2c(c1)OCO2	101	50	-14	0.89	118	i	0.5
CCCCCc1nnc(NC(=O)Cn2cnc3ccccc3c2=O)s1	129	35	1	0.97	82	i	-1.2
CS(=O)(=O)N1CCN(c2ccccc2NC(=O)C(c2ccccc2)c2ccccc2)CC1	103	-21	0	0.95	89	i	-1.4
CCc1cc(N2CCOCC2)cc2c1[nH]c1ccccc12	99	·	-2	1.1	·	i	-2.0
Clc1ccc(-c2nnc(-c3ccccc3)c(N3CCSCC3)n2)cc1	99	·	12	0.96	·	i	-2.8
O=C(c1ccc(Cl)cc1)N1CCCC(C(=O)N2CCc3ccccc3C2)C1 (stereo not drawn)	95	·	·	0.91	·	i	·

14 compounds from above, ordered by molar mass, falling.
compound	RGS16-Gao	INS promoter inh	PKD1 kinase inh	HSV augment primary fold	INS promoter inh cell count	HSV augment	GALR2 ag
Cc1onc(-c2c(Cl)cccc2Cl)c1C(=O)NNC(=O)c1c(-c2c(Cl)cccc2Cl)noc1C	96	·	·	1.2	·	i	·
COC(=O)c1ccc(-n2c(C)cc(C(=O)COC(=O)CNS(=O)(=O)c3ccc(C)cc3)c2C)cc1	108	33	-2	0.94	146	i	-1.5
Cc1ccc(C(C(=O)NCc2ccccc2)N(C(=O)c2csnn2)c2cccc3ccccc23)o1 (stereo not drawn)	103	-17	9	1	90	i	-1.2
CS(=O)(=O)N1CCN(c2ccccc2NC(=O)C(c2ccccc2)c2ccccc2)CC1	103	-21	0	0.95	89	i	-1.4
CS(=O)(=O)c1ccc(Cl)c(NC(=O)COC(=O)c2c(Cl)cccc2Cl)c1	100	·	-4	0.93	·	i	·
Cc1cccc(C)c1OCc1nnc(NC(=O)CSc2ccc(Cl)cc2)s1	102	39	-10	0.86	146	i	0.4
Cc1cc(C)nc(N2CCCC(C(=O)NCc3cccc(C(F)(F)F)c3)C2)n1 (stereo not drawn)	45	·	-3	1.1	·	i	-2.9
O=C(O)c1ccc(Cl)c(S(=O)(=O)NC(Cc2ccccc2)C(=O)O)c1 (stereo not drawn)	101	·	6	0.64	·	i	·
Clc1ccc(-c2nnc(-c3ccccc3)c(N3CCSCC3)n2)cc1	99	·	12	0.96	·	i	-2.8
Cc1cc(C(=O)OCC(=O)Nc2ccc(F)c(F)c2F)c(C)o1	100	·	-12	0.96	·	i	·
CCc1cccc(NC(=O)Cn2cc(C=O)c3ccccc32)c1	99	53	-1	0.94	141	i	·
CCc1cc(N2CCOCC2)cc2c1[nH]c1ccccc12	99	·	-2	1.1	·	i	-2.0
CC(=O)NN1C(=O)c2ccccc2NC1c1ccoc1 (stereo not drawn)	100	·	-1	0.93	·	i	·
COC(=O)c1sc2ncn(N)c(=O)c2c1C	107	·	·	1	·	i	·
